# VDR inhibitor: vitamin D3 receptor (human) inhibition. hit rate 0.93% among 400,000. VDR-SRC2-3 peptide fluorescence polarization, 2 h. Potency, µM, for the others: max response, negative = inhibition, most hits filed as inhibitors; active = well fitted inhibition curve with a large enough effect; inconclusive = small, poorly fitted or top-dose-only effect, or another doubt; inactive = no such curve, though single readings can be large or run the other way; note: series mostly up to about 120 µM
# Target sequence (P11473 whole entry, looked up): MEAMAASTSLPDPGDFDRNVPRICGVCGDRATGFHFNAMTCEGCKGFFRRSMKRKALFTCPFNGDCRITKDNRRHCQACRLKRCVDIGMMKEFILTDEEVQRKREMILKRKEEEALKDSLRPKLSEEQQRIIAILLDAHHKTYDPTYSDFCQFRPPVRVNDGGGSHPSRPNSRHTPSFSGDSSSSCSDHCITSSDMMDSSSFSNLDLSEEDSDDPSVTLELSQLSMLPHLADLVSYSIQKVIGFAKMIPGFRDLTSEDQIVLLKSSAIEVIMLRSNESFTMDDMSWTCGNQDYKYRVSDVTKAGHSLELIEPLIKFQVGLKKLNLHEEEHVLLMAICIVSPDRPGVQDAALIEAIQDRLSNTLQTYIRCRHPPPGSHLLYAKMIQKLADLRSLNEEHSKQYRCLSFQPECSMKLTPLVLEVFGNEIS
#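 FP read-out; VDR + SRC2-3 coactivator peptide; 23 nl compound by pintool; 2 h RT incubation; reagents held at 4 deg C, protected from light.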
# Numbers without * were called inactive; ? = inconclusive; & = joins results of further samples. % is set by controls: 0 for no effect and ±100 for the full control effect; potency is the fitted concentration of half-maximal effect. A portion of the library (hit frequency here may not be typical).
Molecule,VDR inhibitor
Cc1cccc2c1-c1sc(C(=O)NCCCN3CCN(c4cccc(Cl)c4)CC3)cc1CO2,-5.5%
COc1ccc(N2CC(NC(=O)COc3ccc(F)cc3)CC2=O)cc1OC (stereo unspecified),5.8%
Cc1ccc(-c2cc(NC(=O)c3ccccc3)on2)cc1,-7.8%
CCc1ccccc1N1CC23C=CC(O2)C(C(=O)OC)C3C1=O (stereo unspecified),-27.4%
Cc1cccc(N2CCN(S(=O)(=O)c3ccc4c(c3)NC(=O)CS4)CC2)c1C,-14.4%
Cc1nn(C)cc1NC(=O)c1cc2nc(-c3ccco3)cc(C(F)(F)F)n2n1,1.2%
CCCNC(=S)Nc1ccc(Cl)cc1Cl,-2.2%
COc1cc(SC)ccc1C(=O)Nc1c(C)cccc1C,-15.2%
Cc1ccc(S(=O)(=O)N2CCC(C(=O)N[C@@H](C)C(=O)NCC3CCCO3)CC2)cc1 (stereo partly specified),-5.6%
COc1ccc(-c2noc(CCN3C(=O)c4ccccc4C3=O)n2)cc1OC,-6.9%

# (more compounds)
Molecule,VDR inhibitor
CCc1cc(=O)oc2cc(C)cc(OCC(=O)NCCCN3CCOCC3)c12,-11.4%
CCCN(CCC)CCCNC(=O)Cn1ncc2c3ccccc3n(Cc3ccccc3)c2c1=O,11.1%
N#Cc1ccccc1NC(=O)CSC1=Nc2ccccc2C2CC=NN12 (stereo unspecified),?
Cc1ccc2c(=O)c(C(=O)c3ccc(F)cc3)cn(CC(=O)NCc3ccco3)c2n1,-3.4%
CCN(CC)C(=O)Cn1cc(SCC(=O)Nc2cccc(C)c2)c2ccccc21,10.5%
Cc1cccc(/N=C/c2nc(-c3ccccc3Br)oc2O)n1,?
Cc1ccc(C(=O)CNc2ccccc2)cc1,2.5%
COc1ccc(C(=O)Nc2ccc(Cl)cc2C(=O)NCCO)cc1,-13.3%
Cc1ccc(NC(=S)/N=C(\N)Nc2nc(C)c3cc(C)ccc3n2)c(C)c1,?
CCn1c(SCC(=O)c2ccc(C)cc2)nnc1-c1ccncc1,17.6%

# Later entries:
Molecule,VDR inhibitor
Cc1ccc(-c2nc(CN(Cc3cnn(C)c3)C(C)C)c(C)o2)o1,-7.5%
CC(=O)Nc1cccc(-c2nnc(SCC(=O)N3CCCCC3)n2C)c1,3.1%
O=C(CCC1N=C2c3ccccc3N=C(SCc3ccc(F)cc3)N2C1=O)NCc1ccc(F)cc1 (stereo unspecified),13.4%
N=C1C(c2ccccc2)=C(O)CN1c1ccccc1,-7.7%
COCc1nnc(NC(=O)COc2ccc3c(c2)OCO3)s1,8.4%
CC1(C)CC(=O)C2=C(C1)OC(N)=C(C#N)C2C#Cc1ccccc1 (stereo unspecified),44.7µM*
NC(=O)CNc1n[nH]c(=S)[nH]c1=O,-10.6%
O=C(C#Cc1ccccc1)c1ccc([N+](=O)[O-])cc1,14.1µM*
O=C1NC(=O)C(CC(=O)N(c2ccccc2)C2(C(=O)NC3CCCC3)CCCCC2)N1 (stereo unspecified),-24.6%
Cc1cc(NC(=O)CON=C(N)CC(=O)Nc2ccccc2Cl)ccc1Br,14.0%

# Later entries
Molecule,VDR inhibitor
COc1ccc(/C=C/C(=O)Oc2cc(O)cc(O)c2)cc1,9.8%
Cc1cc(C(F)F)n2nc(C(=O)Nc3ccc(C(C)C)cc3)nc2n1,-11.6%
COc1ccccc1C(=O)Nc1nnc(SCc2cc(=O)c3ccccc3[nH]2)s1,9.2%
COc1ccc(N(CC(=O)Nc2cc(C)on2)S(=O)(=O)c2cc(C)ccc2C)cc1,2.9%
CCOc1ccc2nc(Cl)c(C3CC(c4ccccc4)=NN3C(=O)c3cccs3)cc2c1 (stereo unspecified),22.1%
CO/N=C/C=C1/N(C)c2ccccc2C1(C)C,11.9%
O=C(Cn1cnc2c(NCc3ccccc3)ncnc21)NCCc1cc2ccccc2[nH]1,6.7%
c1ccc(CNc2c3c(nc4ncnn24)CCCC3)nc1,-13.6%
CC(=O)Nc1ccc(NC(=O)C(C)OC(=O)CNC(=O)c2sc3ccccc3c2Cl)cc1 (stereo unspecified),-14.4%
Cc1c(Cc2ccccc2)c(=O)oc2cc(OCC(=O)N[C@@H](Cc3ccccc3)C(=O)O)ccc12,-9.0%

# More compounds.
Molecule,VDR inhibitor
CC(Oc1ccccc1)C(=O)Nc1ccccc1C(=O)OCc1cc(=O)n2nc(C(C)C)sc2n1 (stereo unspecified),4.1%
Cc1ccccc1Cn1c([N+](=O)[O-])cnc1C,-8.5%
O=C(CSc1nnc(Cc2cccs2)n1CCc1ccccc1)N1CCCc2ccccc21,15.9%
C/C(=N\NS(=O)(=O)c1ccc(C)cc1)c1ccc(Br)s1,-0.5%
CCOC(=O)c1cccc(OCC(O)CNCCOc2ccccc2F)c1 (stereo unspecified),1.9%
Cc1nn(Cc2ccc(Cl)cc2)c(C)c1NC(=O)/C=C/c1cnn(C)c1,-15.6%
COc1ccc(Cl)cc1NC(=O)CSc1nc(NS(=O)(=O)c2ccc(C)cc2)cc(=O)[nH]1,-0.7%
Cc1ccccc1OCC(=O)Nc1cnn(CCCC(=O)O)c1,0.3%
Cc1c(Cl)cccc1NC(=S)N1CCCCCC1,25.0%
O=S(=O)(c1ccc2oc3ccc(S(=O)(=O)N4CCCCC4)cc3c2c1)N1CCCCC1,-11.4%

# The results go on.
Molecule,VDR inhibitor
CCCCn1c(=NC(=O)c2ccc3c(c2)OCO3)c(C#N)cc2c(=O)n3cccc(C)c3nc21,17.0%
O=C(NCc1cccc(Br)c1)C1CC(c2ccccc2[N+](=O)[O-])=NO1 (stereo unspecified),2.7%
CCNC(=O)C(=O)NCCC1CCCCN1S(=O)(=O)c1cccs1 (stereo unspecified),1.6%
COc1ccc(CC2(CO)CCN(Cc3ccc(OC(F)(F)F)cc3)CC2)cc1,-4.5%
C/C(=N\NC(=O)c1ccccc1O)c1cccc(NC(=O)c2ccccc2)c1,11.0%
COC(=O)c1sc(-c2cccs2)cc1N,-0.9%
COc1cc(C(=O)O/N=C2/C=CC(=O)C(C)=C2C)cc(OC)c1OC,2.4%
Cc1oc(-c2ccccc2)nc1CNC(=O)NC1CCCCC1,6.4%
COc1ccc(Cl)cc1NC(=O)c1cc(-c2ccc(C)cc2O)n[nH]1,-16.3%
COc1ccc(NC(=O)N2CCC(Cc3ccccc3)CC2)cc1,-19.1%

# Following part
Molecule,VDR inhibitor
O=C(Nc1ccc(Cl)cc1)Nc1ccc(Br)cn1,-22.4%
Cc1cccc(C(=O)O[C@@H]2[C@H](Cc3ccccc3)NS(=O)(=O)[C@H]3C[C@@H]4C=C[C@]23O4)c1,-3.7%
COc1ccc(S(=O)(=O)N(C)c2ccc(C(=O)NC3CCCC3)cc2)cc1,5.9%
C=CCN1CCN(C(c2ccccc2OC)c2nnnn2C(C)(C)C)CC1 (stereo unspecified),18.9%
CC(C)=CCc1c(O)c(CC=C(C)C)c2c(c1O)C(=O)CC(c1ccc(O)cc1)O2 (stereo unspecified),-17.9%
COc1ccc(C(=O)C[n+]2ccc3c(c2)nc(-c2ccc(OC)cc2OC)n3C)cc1,-3.3%
CCC(C)C(=O)Nc1ccc([N+](=O)[O-])cc1OC (stereo unspecified),-17.4%
CCOC(=O)c1c(-c2ccccc2)oc2ccc(OCC)cc12,4.3%
Cc1cc(C(=O)N[C@H](c2ccccc2)[C@@]2(C)C[C@@H]2[C@@H](C)C(=O)Nc2ccc3ccccc3c2)n(C)n1,-6.3%
O=C(CSc1ccc(Cl)cc1)Nc1ccccc1N1CCN(C(=O)c2ccc(Cl)cc2)CC1,-15.1%

# The listing continues.
Molecule,VDR inhibitor
Cc1ccc(CN(C)C(=O)c2cccc(S(=O)(=O)N3CCc4ccccc43)c2)cc1,6.4%
CCC(=O)Nc1nc(C)c(C(=O)NC2CCCCC2)s1,-8.9%
CN(C)c1ccc(/C=N/NC(=O)COc2ccccc2)cc1,4.2%
CCOC(=O)N1CCC(NC(=O)CSc2cc(=O)n(C)c3ccccc23)CC1,2.3%
CC(=O)Nc1ccc(OS(=O)(=O)c2ccc(C)cc2C)cc1,-10.8%
CC1(c2ccc(Cl)cc2)NC(=O)N(CC(=O)NC(=O)NCc2ccco2)C1=O (stereo unspecified),15.1%
CC(C)C(=O)C1=Cc2cccc([N+](=O)[O-])c2OC1N1CCOCC1 (stereo unspecified),-13.9%
O=C1C2C3C=CC(C3)C2C(=O)N1CCc1ccccc1 (stereo unspecified),-6.1%
NC(=O)c1cc[n+](Cc2ccccc2Cl)cc1,-5.8%
CCOc1c(C)cnc2c1c(=O)n(Cc1ccc(Cl)cc1)c(=O)n2C,9.1%

# (next part)
Molecule,VDR inhibitor
CCCCOCC1CC(CC#CCN2CCCCC2)C(=O)O1 (stereo unspecified),1.3%
COc1ccc(CNC(=O)c2cnc(N3CCCC3)nc2C)cc1,-3.7%
COc1ccc(CCNC(=O)c2nnn(CC(=O)Nc3ccccc3C)c2N)cc1OC,0.8%
CN(C)S(=O)(=O)c1cc(NC(=O)C2=COCCO2)ccc1Cl,-3.7%
COc1ccccc1OCC(=O)NNC(=O)CCCC(=O)NNC(=O)COc1ccccc1OC,-25.9%
CCN(CC)S(=O)(=O)c1ccc2c(c1)N(CC(=O)NCCc1ccccc1)C(=O)CO2,-7.5%
COc1ccc(CNC(=O)CN2C(=O)COc3ccc(S(=O)(=O)N4CCCCC4)cc32)cc1,-10.0%&5.4%
COc1ccc(S(=O)(=O)N2CCC(N3CCN(Cc4ccc(F)cc4)C(=O)C3=O)CC2)cc1,14.2%
CCOC(=O)c1c(NC(=O)c2ccoc2C)sc(C(=O)N(C)C)c1C,-1.7%
CN(C)/C=N/C(=S)Nc1ccc(F)cc1,18.9%

# Next part
Molecule,VDR inhibitor
CCCNC(=O)N1N=C(c2ccc(N)cc2)c2cc3c(cc2[C@H]1C)OCO3,-25.7%
CC(C)(C)C(=O)Oc1cc(N)n(S(=O)(=O)c2ccccc2)n1,-8.9%
Cc1cc(N2CCCC2)nc2ccc(NC(=S)NCCCOC(C)C)cc12,-12.4%
O=c1c2c([N+](=O)[O-])cc([N+](=O)[O-])cc2nc2ccccn12,-16.4%
O=C(CCS(=O)(=O)c1ccc(F)cc1)Nc1nc(-c2ccccn2)cs1,-21.5%
CC(=O)Nc1cccc(Oc2ccc3c(c2)C(=O)N(CCC(=O)O)C3=O)c1,9.9%
Cc1cccc(NC(=O)N2CCC(c3nc4ccccc4o3)CC2)c1,4.3%
Cc1ccc(-c2cc3ncc4c(n3n2)-c2cc(F)ccc2OC4)cc1,15.5%
CC(C)(C)NS(=O)(=O)CC12CCC(CC1=O)C2(C)C (stereo unspecified),-4.5%
COc1ccc2cc(CN(Cc3cccnc3)Cc3nnnn3Cc3ccccc3)c(=O)[nH]c2c1,3.7%

# Additional compounds follow:
Molecule,VDR inhibitor
CN(CC(=O)Nc1ccc(Cl)cc1F)S(=O)(=O)c1ccc2c(c1)n(C)c(=O)c(=O)n2C,-4.2%
OCc1cnc(SCc2ccccc2)n1Cc1ccccc1,-5.1%
COc1ccccc1/C=C(\C#N)C(=O)NCC1CCCO1 (stereo unspecified),-13.2%
C=CCN(C(C(=O)OC)C(C)C)S(=O)(=O)C=C (stereo unspecified),-2.6%
NC(=O)c1ccsc1NC(=O)COC(=O)c1cnccn1,-8.4%
Cc1ccc(SCCC(=O)N/N=C/c2ccccc2O)cc1,10.6%
COc1ccc(NC(=O)Cc2c(F)cccc2Cl)c(OC)c1,10.3%
CCOc1ccc(N(CC(N)=O)S(=O)(=O)c2ccc(F)cc2)cc1,9.8%
CCC(=O)N=C1SC2CS(=O)(=O)CC2N1c1cccc(OC)c1 (stereo unspecified),-1.4%
N#Cc1nc(/C=C/c2ccc(F)cc2)oc1N1CCCCCC1,6.7%

# 6 entries drawn at random from the list so far, as already listed:
Molecule,VDR inhibitor
CN(CC(=O)Nc1ccc(Cl)cc1F)S(=O)(=O)c1ccc2c(c1)n(C)c(=O)c(=O)n2C,-4.2%
C=CCN(C(C(=O)OC)C(C)C)S(=O)(=O)C=C (stereo unspecified),-2.6%
OCc1cnc(SCc2ccccc2)n1Cc1ccccc1,-5.1%
CCC(=O)N=C1SC2CS(=O)(=O)CC2N1c1cccc(OC)c1 (stereo unspecified),-1.4%
NC(=O)c1ccsc1NC(=O)COC(=O)c1cnccn1,-8.4%
Cc1ccc(SCCC(=O)N/N=C/c2ccccc2O)cc1,10.6%

# (more compounds)
Molecule,VDR inhibitor
O=S(=O)(NCCSc1nc2ccccc2o1)c1ccccc1,-18.3%
Cc1cccc(C(=O)N2CCc3cc(CNC(=O)c4ccnn4C)ccc32)c1,6.0%
Cc1cccc(C)c1OCC(=O)NNC(=O)CCNC(=O)c1ccco1,0.4%
O=C1[C@H]2[C@@H](c3ccc(F)cc3)N3C(=O)N(c4cccc(Cl)c4)C(=O)[C@@]3(Cc3ccc(Cl)cc3)[C@H]2C(=O)N1C1CCCCC1,-7.7%
COc1ccc(C2Nc3ccccc3C(=O)N2NS(=O)(=O)c2ccc(C)cc2)c(OC)c1 (stereo unspecified),-4.2%
COC(=O)C1=C(C)Nc2nc(SCc3ccccc3)[nH]c(=O)c2C1c1cccs1 (stereo unspecified),-3.2%
CCOC(=O)C1CCN(C(=O)c2ccc3c(c2)sc2nc(-c4ccc(C)cc4)cn23)CC1,5.9%
Cc1ccccc1-n1nc(CSc2nc3ccccc3[nH]2)c(-c2ccccc2)c1N,-12.0%
Cn1c(CNc2ccc(Cl)cc2)nnc1SCCN1CCCCC1,-2.1%
Cc1ccc(N(C(C)C(=O)Nc2ccccc2C(=O)N2CCOCC2)S(C)(=O)=O)cc1C (stereo unspecified),7.8%
O=C(CN1CCCC1)N1c2ccccc2Sc2ccc(C(F)(F)F)cc21,-1.2%
